Bioassay records from PubChem BioAssay.
Arbovirus anti = arbovirus infection inhibition; arbovirus infection cell-based antiviral screen; inhibition, % at 10 µM; 200,000 compounds, 0.37% hits; AID 1251;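 active = inhibition from about 30%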;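 note: bluetongue infection of BSR cells; cell survival read as ATP light after 72 h; 0% = infected wells without compound and 100% = uninfected wells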
YopH inh = blocks Yersinia enterocolitica YopH tyrosine phosphatase; fluorescence Ex485/Em525; inhibition, %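 (about 10 µM by stock and volumes)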; 140,000 compounds, 0.16% hits; AID 898;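 active = inhibition of 50% or more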;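 note: controls were vehicle for no effect and minimum signal wells for full effect; inactives centre near -20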
Mtb bLac sens = beta-lactam sensitization of Mtb H37Rv. 330,000 compounds, 0.27% hits. M. tuberculosis H37Rv growth with meropenem, percent inhibition; hits of this screen are not shown here. AID 434955. inhibition, % at 25 µM;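 active = about 74% or more and at least 40 points above the plate without the antibiotic, then above 30% in a dose series; inconclusive = first-round hits that could not be retested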;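 note: growth measured after seven days incubation then overnight dye step; 0% = bacteria only wells and 100% = bacteria with antibiotic; twin plates without the antibiotic show which effects depend on it; some results filed as inactive read as strong as hits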
RecA intein inh = inhibitors of M. tuberculosis RecA intein splicing; P9WHJ3; cell-free RecA intein splicing, fluorescence; inhibition, %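 (about 9 µM by stock and volumes)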; 290,000 compounds, 0.75% hits; AID 2221; in the data active = inhibition above about 30%; inconclusive = no clear call, values can overlap the other calls;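 note: 0% = vehicle wells and 100% = reference inhibitor control wells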
Target sequence (P9WHJ3 whole entry, looked up): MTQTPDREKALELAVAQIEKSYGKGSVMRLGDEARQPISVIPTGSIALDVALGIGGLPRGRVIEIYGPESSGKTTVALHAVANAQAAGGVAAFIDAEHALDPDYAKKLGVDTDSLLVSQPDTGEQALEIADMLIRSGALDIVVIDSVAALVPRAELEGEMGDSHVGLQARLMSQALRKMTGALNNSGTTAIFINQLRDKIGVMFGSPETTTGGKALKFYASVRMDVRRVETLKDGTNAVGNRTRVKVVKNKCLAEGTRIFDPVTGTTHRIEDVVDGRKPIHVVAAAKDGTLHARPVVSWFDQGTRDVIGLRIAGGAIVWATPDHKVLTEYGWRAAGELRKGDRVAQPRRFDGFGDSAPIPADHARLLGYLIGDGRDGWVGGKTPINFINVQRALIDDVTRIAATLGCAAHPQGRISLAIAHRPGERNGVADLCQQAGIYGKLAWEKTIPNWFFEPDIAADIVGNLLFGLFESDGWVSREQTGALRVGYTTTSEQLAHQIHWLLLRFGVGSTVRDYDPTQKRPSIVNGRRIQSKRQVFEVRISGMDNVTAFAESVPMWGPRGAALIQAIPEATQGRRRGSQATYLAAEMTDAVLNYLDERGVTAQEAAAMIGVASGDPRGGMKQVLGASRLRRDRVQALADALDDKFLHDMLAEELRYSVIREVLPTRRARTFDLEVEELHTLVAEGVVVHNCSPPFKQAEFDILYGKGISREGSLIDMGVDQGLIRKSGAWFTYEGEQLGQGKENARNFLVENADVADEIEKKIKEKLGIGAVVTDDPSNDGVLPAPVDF
Mtb H37Rv = M. tuberculosis H37Rv growth inhibitors, H37Rv strain (AID 1626); M. tuberculosis H37Rv growth inhibition; higher % means a stronger effect; inhibition, % at 10 µM, or IC50 in µM where a hit was titrated; 220,000 compounds, 0.95% hits;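 active = confirmed in a dose series; inconclusive = inhibition above 80% but not taken into the dose series; inactive = below 80% or under 30% at every dose of the series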;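 note: bacteria incubated seven days before Alamar blue readout; 0% = bacteria only wells and 100% = bacteria with antibiotic wells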
Arbovirus anti repeat = recorded beside Arbovirus anti, whose call it bears; inhibition, %; measured here: 10K subset replicate screen; many hits read low in the repeat;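 first of two repeat runs on a subset; 0% = infected and 100% = uninfected wells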
* = called active by the depositor; ? = inconclusive; / = no result given.

SMILES	Arbovirus anti	YopH inh	Mtb bLac sens	RecA intein inh	Mtb H37Rv	others
COC(=O)c1ccccc1NC1CC(=O)N(c2c(C)cccc2C)C1=O (configuration not stated)	-3	-11	-3	-1.9	-3%
CCn1ncc(C2=NOC(C(=O)Nc3cccnc3)C2)c1C (configuration not stated)	1	-29	2	-2.1	0%
O=C(/C=C/c1ccc(OCc2cccc(Cl)c2)cc1)N1CCOCC1	-5	/	90	7.3	9%
O=C(O)c1cc(N/N=C/c2cccs2)ccc1Cl	0	/	1	-1.0	2%
Cc1cc(C)c2c3c(sc2n1)C(=O)N(c1ccccc1C)CC(=O)N3	/	/	1	1.6	-3%
CCONC(=O)Nc1ccccc1	2	-34	-1	-0.1	/
Cc1ccccc1CNC(=O)C1CCC(=O)N(C2CCCCCC2)C1 (configuration not stated)	/	/	4	0.3	/
CCc1cc2c(SCC(=O)c3ccc(Cl)s3)ncnc2s1	-6	-19	7	1.5	5%
O=C(COC(=O)c1ccc(O)cc1O)N=c1sccn1Cc1ccccc1Cl	/	/	-5	2.0	/
Cc1ccc(-n2c(C)cc3c2CC(C)(C)CC3=O)cc1C	-9	7	2	3.6	-6%
COc1ccc(CCN=CC2=C(O)CCCC2=O)cc1OC	-2	-41	0	3.8	-4%
COc1ccc(N2CCN(c3ccc(N4C(=O)CC(C)C4=O)cc3[N+](=O)[O-])CC2)cc1 (configuration not stated)	0	/	-2	0.4	/
Cc1cc(NC(=O)C2CC2)ncc1NC(=O)c1ccccn1	0	/	4	1.3	-6%
CCOc1cc(/C=N/Nc2cccc(C(=O)O)c2)ccc1OCC(=O)N1CCCCC1	-9	/	/	/	1%
COc1ccc([N+](=O)[O-])cc1N(CC(=O)NC1CCCCC1)S(C)(=O)=O	0	/	-13	-0.9	6%
O=C(COC(=O)c1cccs1)NC1CCCCC1	7	-38	-11	-0.2	-4%
COc1ccc2nc(NC(=O)C3CCCN(S(=O)(=O)c4cccc5nsnc45)C3)sc2c1 (configuration not stated)	1	8	70	-1.0	74%
C/C(=N\NC(=O)c1cc(C(C)(C)C)[nH]n1)C12CC3CC(CC(C3)C1)C2	7	/	-5	0.8	6%
CC(OC(=O)c1cc(S(=O)(=O)N(C)c2ccccc2)ccc1Cl)C(=O)Nc1ccc2c(c1)OCCO2 (configuration not stated)	10	-18	1	2.6	-1%
COC(CNC(=O)c1ccc(CS(=O)(=O)c2ccccc2)o1)OC	/	/	-1	-0.8	/
CCSc1nnc(NC(=O)[C@@H](NC(=O)c2ccccc2)C(C)C)s1	3	-25	-4	-0.9	10%
CCCc1nn2c(=O)cc(CSCC(=O)Nc3cccc(C)c3)nc2s1	/	/	2	-0.7	/
O=C(CN(c1cccc([N+](=O)[O-])c1)S(=O)(=O)c1ccccc1)NCc1cccnc1	/	/	2	-1.8	/
Cc1cccc(NC(=O)CCCn2c(=S)[nH]c3ccccc3c2=O)c1	-2	/	2	-0.3	6%
Cc1cccc(/C=N/Nc2ccc3ccccc3n2)c1	-13	/	25	6.7	9%

Quoted at random: five records from the list, in no set order.
SMILES	Arbovirus anti	YopH inh	Mtb bLac sens	RecA intein inh	Mtb H37Rv	others
COC(CNC(=O)c1ccc(CS(=O)(=O)c2ccccc2)o1)OC	/	/	-1	-0.8	/
O=C(COC(=O)c1cccs1)NC1CCCCC1	7	-38	-11	-0.2	-4%
Cc1cc(NC(=O)C2CC2)ncc1NC(=O)c1ccccn1	0	/	4	1.3	-6%
COc1ccc([N+](=O)[O-])cc1N(CC(=O)NC1CCCCC1)S(C)(=O)=O	0	/	-13	-0.9	6%
CCn1ncc(C2=NOC(C(=O)Nc3cccnc3)C2)c1C (configuration not stated)	1	-29	2	-2.1	0%

The listing continues:
SMILES	Arbovirus anti	YopH inh	Mtb bLac sens	RecA intein inh	Mtb H37Rv	others
Cc1ccc(CNC(=O)/C=C/c2ccc(S(=O)(=O)N3CCOCC3)cc2)cc1	1	-25	2	0.2	0%
CC(C)N(C)S(=O)(=O)c1ccc(Cl)c(C(=O)O)c1	9	/	-12	0.5	-1%
COc1ccc(N2CCN(C(=O)NC3CC(=O)N(c4ccc(OC)cc4)C3)CC2)cc1 (configuration not stated)	21	/	-5	-1.8	0%
COc1ccc(N(CC(C)C)S(=O)(=O)c2nnc(NC(=O)CC(C)C)s2)cc1	/	/	3	-1.2	/
COc1ccc(Cl)cc1NC(=O)CCc1nnc2ccc(N3CCN(C)CC3)nn12	/	/	3	0.1	/
Cn1cc(CCNC(=O)CC2C(=O)NCCN2CC(c2ccccc2)c2ccccc2)cn1 (configuration not stated)	/	/	-9	1.5	-6%
CCOC(=O)c1cnn(-c2ccccc2)c1-c1ccccc1	6	18	-6	1.5	2%
O=c1[nH]cnc2ccc([N+](=O)[O-])cc12	/	/	-6	-1.5	-5%
O=C(c1ccccc1)N1CC(COc2ccccc2)OC(c2ccco2)O1 (configuration not stated)	3	-38	3	4.2	2%
NS(=O)(=O)c1ccc(NC(=S)NC2CCCC2)cc1	5	-34	-4	-3.0	-1%
O=C(OC(c1ccc(NS(=O)(=O)c2ccccc2)cc1)(C(F)(F)F)C(F)(F)F)c1ccccc1	-11	-5	2	-1.0	5%
CCC(C)(C)n1nnnc1C(c1ccc(F)cc1)N1CCN(C(=O)c2ccco2)CC1 (configuration not stated)	/	/	6	1.3	/
Cc1c(NC(=O)/C(C#N)=C/C2CC=CCC2)c(=O)n(-c2ccccc2)n1C (configuration not stated)	2	-23	-7	0.8	/
COc1ccc(-c2n[nH]c3c2C(c2ccc(OC)c(OC)c2)N(c2ccccc2)C3=O)cc1 (configuration not stated)	-27	-22	6	13	-5%
Cc1ccc(/C=C/C(=O)Nc2ccc([N+](=O)[O-])c(NC(=O)/C=C/c3ccc(C)o3)c2)o1	0	6	-4	12	2%
Cc1noc(C)c1COC(=O)c1ccc2c(c1)S(=O)(=O)c1ccccc1C2=O	6	-44	-3	-2.2	-8%
COc1ccc(N(C(=O)CNC(=O)c2ccco2)C(C(=O)NC2CCCC2)c2ccco2)cc1 (configuration not stated)	/	/	-7	1.2	/
Cc1ccc(N(C(=O)c2snc(C(N)=O)c2N)C(CC(C)C)C(=O)NC2CCCC2)cc1 (configuration not stated)	/	/	-5	2.8	/
CCOc1ccccc1C(=O)OCC(=O)Nc1ncc(C(F)(F)F)cc1Cl	5	-14	-2	3.1	-1%
COc1ccc(Oc2ccc(/C=C/C(=O)c3ccc(O)cc3)cc2[N+](=O)[O-])cc1	-35	-17	5	27	25%
COc1ccc(-c2csc(N(CCCN(C)C)C(=O)c3ccc(C(C)(C)C)cc3)n2)cc1	/	/	88	7.3	/
CNc1cc(=O)n(C)c(=O)n1-c1ccccc1	/	/	8	2.1	/
Cc1cccc(NC(=O)CSc2nsc(SCC(=O)Nc3cccc(C)c3)c2C#N)c1	-3	-5	-3	0.6	15%
Cc1ccc(NC(=O)Cc2ccc(-n3cccc3)cc2)c(C)c1	-2	-32	4	0.2	5%
CC(NC(=O)C(Cc1ccccc1)N1C(=O)C2C3CCC(C3)C2C1=O)c1ccccc1 (configuration not stated)	0	-21	4	-1.3	2%
SMILES	Arbovirus anti	YopH inh	Mtb bLac sens	RecA intein inh	Mtb H37Rv	others
Cc1ccccc1Cn1c(=O)n(C)c(=O)c2sccc21	/	/	3	3.1	/
C/C(CC(=O)Nc1ccc([N+](=O)[O-])cc1)=N/NC(=O)C1CC12CCC2 (configuration not stated)	-2	/	1	1.9	6%
COc1ccc(NC(=O)CN2C(=O)C(C)SC(C)C2=O)cc1 (configuration not stated)	-5	-9	0	1.9	-1%
C=CCn1c(SCC(=O)Nc2nnc(C)s2)nnc1-c1cccnc1	11	/	2	-0.4	-3%
Cc1cccc(C(=O)N[C@H](C(=O)OCC(=O)NC(=O)c2cccn2C)C(C)C)c1	6	-14	1	0.3	-2%
COc1cc(Br)cc2cc(C(=O)N3CCN(c4ccccn4)CC3)c(=O)oc12	-4	-2	4	-1.7	-5%
Cc1ccc(NC(=O)c2ccc(CNS(=O)(=O)c3cccc(C(F)(F)F)c3)cc2)cc1	-28	2	19	-2.6	-1%
COc1ccc(CCN2C(=O)C3C4C=CC(C5CC45)C3C2=O)cc1OC (configuration not stated)	-1	/	-4	1.8	-3%
Cc1cccc(C)c1NC(=O)CN(C)C(=O)c1ccc2nc[nH]c2c1	/	/	-4	-3.2	/
O=c1[nH]ncc(N2CCCCCC2)c1Cl	-2	/	4	/	1%
CC(=O)N=C1SC2CS(=O)(=O)CC2N1c1c(Cl)cccc1Cl (configuration not stated)	1	-41	-7	0.2	-2%	Arbovirus anti repeat=-1
COc1cc(-c2nnc(SCC(=O)Nc3ccc4c(c3)OCCO4)o2)cc(OC)c1OC	-6	-14	-3	-5.7	-4%
CC1(CCc2ccc3c(c2)OCO3)NCCc2c1[nH]c1ccccc21 (configuration not stated)	/	/	-2	0.8	/
O=[N+]([O-])c1cccc(C(=NCc2ccccc2)NO)c1	/	/	0	2.5	/
CC(=O)c1cc(C(=O)N2CCCC(C(=O)c3ccc(Cl)cc3)C2)cs1 (configuration not stated)	/	/	?	3.8	/
CCOc1ccc(CCNC(=O)COC(=O)c2ccc(Cl)nc2)cc1OCC	/	/	-1	1.4	/
COc1ccccc1/C=C/C(=O)Nc1cccc(C(C)=O)c1	-4	/	-4	0.3	6%
CCN(C(=O)Cc1c(C(=O)O)n(CC)c2ccccc12)c1ccccc1C	/	/	5	7.2	/
COC(=O)C(O)(c1ccc(N(C)C(=O)COc2ccccc2)cc1)C(F)(F)F (configuration not stated)	2	-42	-6	0.9	-11%
CCOc1ccc(/C=C(/NC(=O)c2ccccc2Cl)C(=O)O)cc1	11	/	-3	0.0	4%
C=CCn1c(SCC(=O)NCc2cccs2)nnc1C1CCCCC1	1	-43	-14	-0.1	-4%
CC(C)CC(=O)NC(NC(=S)Nc1ccccc1)C(Cl)(Cl)Cl (configuration not stated)	-4	/	-4	3.4	-1%
CCOc1ccc(/C=C(\C(=O)O)c2ccc(S(=O)(=O)N3CCOCC3)s2)cc1OC	4	-27	1	0.3	-3%
COc1ccc(CC(=O)Nc2cc(=O)n(C)c(=O)n2C)cc1	4	-43	5	-3.0	0%	Arbovirus anti repeat=-2
CCC(C)NC(=O)COc1ccc(Br)c(C)c1 (configuration not stated)	2	-20	2	-0.3	-3%

A portion from further up, as a working copy:
SMILES	Arbovirus anti	YopH inh	Mtb bLac sens	RecA intein inh	Mtb H37Rv	others
COC(=O)C(O)(c1ccc(N(C)C(=O)COc2ccccc2)cc1)C(F)(F)F (configuration not stated)	2	-42	-6	0.9	-11%
CCOc1ccc(/C=C(/NC(=O)c2ccccc2Cl)C(=O)O)cc1	11	/	-3	0.0	4%
C=CCn1c(SCC(=O)NCc2cccs2)nnc1C1CCCCC1	1	-43	-14	-0.1	-4%
CC(C)CC(=O)NC(NC(=S)Nc1ccccc1)C(Cl)(Cl)Cl (configuration not stated)	-4	/	-4	3.4	-1%
CCOc1ccc(/C=C(\C(=O)O)c2ccc(S(=O)(=O)N3CCOCC3)s2)cc1OC	4	-27	1	0.3	-3%

New compounds follow
SMILES	Arbovirus anti	YopH inh	Mtb bLac sens	RecA intein inh	Mtb H37Rv	others
COCCCn1c(=O)c2sccc2n(Cc2cccc(F)c2)c1=O	/	/	-13	2.7	/
CC(=O)c1cccc(NC(=O)c2ccc(S(=O)(=O)N3CCCC3)cc2)c1	/	/	-2	-0.5	/
COC(=O)CSc1ccc2c(N)c(C(=O)OC)sc2c1	0	6	100	-0.5	1.7µM*
O=C(CSc1ncn[nH]1)Nc1ccnc2ccccc12	4	-8	-6	-2.0	0%
CCCCOc1ccc(S(=O)(=O)N2CCN(C)CC2)cc1	/	/	-4	-1.7	/
CC1Sc2ccc(S(=O)(=O)CCC(=O)Nc3cc(F)ccc3F)cc2NC1=O (configuration not stated)	/	/	4	-0.4	/
Cc1cc(C)c(S(=O)(=O)N(CC(=O)N2CCOCC2)C2CCCCC2)c(C)c1	-9	-29	-2	1.1	3%
COc1ccc(C(O)(c2ccccc2OC)C(CN2CCOCC2)c2ccccc2)cc1 (configuration not stated)	-1	/	-4	3.4	-3%
O=C(Nc1nncs1)c1cccc(S(=O)(=O)N2CCCC2)c1	-4	-5	-5	2.2	1%
CCOC(=O)N1CCN(C(=O)C2CCC(CNS(=O)(=O)c3ccccc3)CC2)CC1 (configuration not stated)	5	-27	-4	3.9	-9%
COc1ccc(OC)c(/C=N/NC(=O)CC2C(=O)NN=C2C)c1 (configuration not stated)	0	-1	-19	-1.0	4%
NC(C(=O)O)C(c1ccccc1)C(F)F (configuration not stated)	/	/	-6	0.8	-6%
CC(=O)C1=C(c2ccccc2)NC(=O)NC1c1ccccc1OCC#N (configuration not stated)	7	-25	4	0.6	-3%
COc1cc(S(=O)(=O)N2CCCCCC2)ccc1Cl	2	-35	0	2.8	-2%
O=C(Nc1ccccc1)c1ccc(NCCc2ccccc2)c([N+](=O)[O-])c1	-4	-6	-2	-7.0	0%

Only part of the results is shown; rates above refer to the full screens.
